# Screening results as filed in PubChem.
# GLA inh pH 4.5 = blocks human alpha-galactosidase A at pH 4.5; P06280; purified enzyme, 4-MU-alpha-Gal fluorescence, pH 4.5; activity change, negative = inhibition, % at 105 µM; 230,000 tested, under 10 active; AID 1467; inconclusive = small, poorly fitted or top-dose-only inhibition, or a rising curve; inactive = flat fitted curve, though single readings scatter; no compound was filed as active;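 further: 0% = full activity with enzyme and -100% = basal without enzyme; dose as in the result columns while the protocol names 77 µM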
# Target sequence (P06280 whole entry, looked up): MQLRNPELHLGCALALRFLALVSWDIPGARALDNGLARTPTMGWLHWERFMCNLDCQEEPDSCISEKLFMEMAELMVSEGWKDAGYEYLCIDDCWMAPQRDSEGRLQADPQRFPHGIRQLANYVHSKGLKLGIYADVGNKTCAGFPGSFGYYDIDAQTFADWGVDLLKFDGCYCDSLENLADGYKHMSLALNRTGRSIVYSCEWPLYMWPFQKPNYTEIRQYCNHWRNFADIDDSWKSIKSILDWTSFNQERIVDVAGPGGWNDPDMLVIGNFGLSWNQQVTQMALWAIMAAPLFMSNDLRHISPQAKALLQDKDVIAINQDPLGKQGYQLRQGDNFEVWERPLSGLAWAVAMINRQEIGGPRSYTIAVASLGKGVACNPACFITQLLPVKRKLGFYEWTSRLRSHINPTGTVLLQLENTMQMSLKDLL
# miR-21 reporter = miR-21 reporter, rising signal; HeLa miR-21 FLuc reporter, luciferase, 48 h; Potency, µM (series often up to 38.3 µM), for inactives: top-dose reporter change, positive = more light; 340,000 tested, under 10 active; active = well fitted rising curve with a large enough effect; inconclusive = small, poorly fitted or top-dose-only effect; inactive = no such curve, though single readings can be large or run the other way;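 further: % of control where 0% means no effect; miR-21 action dims this reporter so a rising signal means less miR-21 action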
#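 Using DMEM plus 10% FBS, HeLa miR-21-FLuc cells are incubated with test compounds (final up to about 40uM) for 48 hours; firefly luciferase signal is then imaged following reagent-mediated lysis.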
# Rango dissoc inh = inhibitors of RanGTP-induced Rango-importin beta complex dissociation. Biochemical FRET Rango-importin beta, RanGTP-induced dissociation. O95149+P62826. Potency, µM (doses to about 46.1 µM), without a hit: at the highest dose activity change, negative = inhibition. 0.071% of 340,000 active. AID 540253; active means falling FRET ratio curve, often poorly fitted, with flat reads before Ran was added; inconclusive means other falling curves, or compound fluorescence or quenching; inactive means flat or rising ratio curve;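 further: potency means the concentration at half of the fitted maximal effect; % of control where 0% means no effect; nearly all actives have a fitted effect of over 45% in size; -100% = wells without RanGTP and RCC1; the record marks most hits as doubtful in a second field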
#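 Compounds preincubate 5 min with complex of recombinant Rango and importin beta in PBS with 1 mM DTT. Ran (0.6 uM) loaded with 2 mM GTP plus 0.2 uM RCC1 starts dissociation; FRET is recorded 45 min later.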
# Rango complex inh = Rango-importin beta binding inhibition | AID 540263 | Q14974 | Rango CFP/YFP FRET sensor + importin beta, 45 min | Potency, µM (top dose mostly 92.2 µM), for the others: top-dose inhibition of complex formation | 0.031% of 340,000 active; active = rising FRET ratio curve, often small or poorly fitted; inconclusive = mostly compound fluorescence or quenching in the first reads; inactive = flat curves in all reads;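 further: potency means the concentration at half of the fitted maximal effect; 0% = DMSO wells and 100% = buffer wells lacking importin beta; nearly all actives have a fitted effect of over 15% in size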
#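 FRET biosensor Rango (snurportin 1 IBB between N-terminal EYFP and C-terminal Cerulean), 50 nM in PBS/1 mM DTT/0.02% Tween-20/0.1% BSA, preincubated 5 min RT with compound; 0.125 microM importin beta added, 45 min RT, CFP/YFP FRET ratio read.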
# Starred values were filed as active, the others as inactive; ? = inconclusive; / = not tested or not shown; & = joins results of further samples.
SMILES,GLA inh pH 4.5,miR-21 reporter,Rango dissoc inh,Rango complex inh
Cc1cc(NS(=O)(=O)c2ccc(NC(=O)c3ccoc3C)cc2)nc(C)n1,4.6,-23.7%,20.7%,-4.9%
CCC(C)[C@H](NC(=O)NCc1ccccc1Cl)C(=O)O (stereo not given in full),0.3,-1.9%,-7.5%,-3.1%
O=C(O)COc1ccc(/C=C/c2nc3ccc([N+](=O)[O-])cc3s2)cc1,-6.5,-18.9%,?,?
O=C(CCC(=O)OCCCC(F)(F)C(F)(F)F)Nc1ccccc1,7.7,-0.6%,22.5%,-0.2%
Cc1c(C(=O)OCC(=O)Nc2c(C)n(C)n(-c3ccccc3)c2=O)cccc1[N+](=O)[O-],0.9,0.6%,3.7%,-1.0%
COc1cccc(N/C(SCc2ccccc2Cl)=C(/C#N)C(=O)NCc2cccs2)c1,-7.9,-6.7%,-5.6%,-0.2%
CC(=O)OC1COC(N2CCc3cc(Br)c([N+](=O)[O-])cc32)C(OC(C)=O)C1OC(C)=O (stereo not given),-9.1,-1.8%,-9.1%,-0.1%
CC(O)CSc1nc2c(c(=O)n(C)c(=O)n2C)n1CCCc1ccccc1 (stereo not given),2.0,0.3%,0.7%,3.1%
CCOC(=O)c1ccc(N2C(=O)CC(N3CCN(Cc4ccccc4)CC3)C2=O)cc1 (stereo not given),-10.0,-0.6%,-16.4%,?
O=C(NCCCN1CCC(Cc2ccccc2)CC1)C1CCC(=O)N1C1CCCC1 (stereo not given),-1.5,-1.5%,-12.1%,-6.5%
CCOc1ccccc1NC(=O)Cc1c(F)cccc1Cl,-16.1,-14.3%,-4.8%,-2.3%
Cn1c(C(=O)O)cc2cc(F)ccc21,2.2,-7.9%,0.6%,0.8%
COCC(=O)N1CCCC(C(=O)c2ccc(C(F)(F)F)cc2)C1 (stereo not given),/,1.9%,0.4%,1.5%
COc1ccc(C(=O)Nc2cccc(NC(C)=O)c2)cc1OC,10.4,-7.4%,3.2%,3.5%
COc1ccc(C(CNC(=O)c2cccc(S(=O)(=O)Nc3ccc(C)cc3)c2)N2CCCCC2)cc1 (stereo not given),/,/,-9.2%,?
CC[C@@H]1CC=C[C@H]2[C@H]1C(=O)N(Cc1ccccc1)[C@H]2c1cc(C)ccc1F,-14.3,14.2%,/,/
Cc1ccc(NC(=O)c2cc(-c3ccccc3O)n[nH]2)cc1C,/,-34.4%,0.3%,-1.1%
CCOc1cc(CNCCO)cc(Br)c1OCc1ccccc1,-9.8,13.8%,16.1%,-1.1%
CCOC(=O)C1CCN(CCC(=O)Nc2cccc(Cl)c2C)CC1,-3.4,-5.1%,-9.6%,-3.5%
Cc1nn(-c2ccccc2)c2nc(N)c(C#N)c(-c3ccc(F)cc3)c12,-7.0,1.2%,24.3%,5.2%
Cc1cc(OCC(=O)N2CCCCCC2)ccc1[N+](=O)[O-],-0.8,-65.2%,-11.5%,?
COc1ccc(N2CCN(C(=O)COC(=O)CNC(=O)c3cccc(OC(F)F)c3)CC2)cc1,/,/,1.0%,-0.7%
COC(=O)Nc1ccc(SCC(=O)c2ccccc2)cc1,-10.5,-32.2%,1.7%,1.7%
Clc1ccc2nc(CSc3nc4ccccc4o3)cn2c1,-6.8,-51.0%,14.1%,0.3%
O=C(N/N=C/c1cccc(O)c1)c1csc2ccccc12,-2.9,-38.9%,28.1%,3.1%
# The results go on:
SMILES,GLA inh pH 4.5,miR-21 reporter,Rango dissoc inh,Rango complex inh
COc1ccc(CCNC(=O)CCCn2c(=O)c3cccn3c3cccnc32)c(OC)c1,/,0.1%,27.4%,-0.1%
CC1=CS(=O)(=O)CC1Sc1nc2ccccc2[nH]1 (stereo not given),-0.2,-1.2%,8.4%,1.9%
O=C(NCc1cccs1)C(Cc1ccccc1)n1cccc1 (stereo not given),4.1,-4.3%,14.2%,-0.6%
CC(CN1CCCCC1)c1ccccc1 (stereo not given),/,-4.8%,3.6%,-2.4%
CC1CCN(C(=O)CNC(=O)CNS(=O)(=O)c2ccccc2)CC1,/,-2.6%,0.9%,3.0%
CCc1ccc(NC(=O)N2CCN(c3ccc(F)cc3)CC2)cc1,7.3,-1.2%,11.9%,1.8%
COc1cccc(CC(=O)Nc2ncc(C)s2)c1,/,-6.9%,35.2%,0.2%
COc1cccc(NC(=O)CN(C)S(=O)(=O)c2ccc3c(c2)n(C)c(=O)c(=O)n3C)c1,/,-2.4%,6.5%,0.4%
CCCCn1c(N)c(N(Cc2ccccc2OC)C(=O)CCSC)c(=O)[nH]c1=O,/,0.8%,-6.3%,1.4%
Cn1ccnc1C(O)(c1nnc(-c2ccccc2)o1)C(F)(F)F (stereo not given),-1.3,-2.5%,0.9%,-2.1%
Cc1cc(C)n2nc(C(=O)Nc3cccc(S(=O)(=O)N4CCOCC4)c3)nc2n1,/,/,17.0%,0.7%
CCCc1cc(=O)[nH]c(SCCOc2ccc(Cl)cc2)n1,0.0,-18.8%,28.3%,-1.5%
O=C(Nc1ccccc1)N1CCSc2cc(Cl)ccc21,-4.4,-15.0%,-4.5%,4.0%
O=C(NC(=O)c1ccccc1)Nc1ccc(Cl)cn1,/,-57.2%,-11.6%,2.1%
COC(=O)c1ccc(C)c(NC(=S)NCc2ccc(Cl)cc2)c1,-17.3,-2.3%,?,?
CCCCN(C)C(=O)c1cccc(OC2CCN(CC(C)(C)C)CC2)c1,/,6.2%,-17.8%,0.4%
OCCC1CN(Cc2nc3c(s2)CCCC3)CCN1CCc1ccccc1 (stereo not given),5.7,-5.0%,-3.7%,0.0%
CCOc1ccc(-c2nc(S(=O)(=O)c3ccccc3)c(NCc3cccnc3)o2)cc1,5.8,-8.9%,-12.0%,0.9%
COc1ccc(C(=O)Nc2ccc(Cl)cc2C(=O)NCc2ccco2)cc1,-7.1,-11.5%,1.1%,-1.9%
CC1CC1C(=O)OCC(=O)Nc1cccc(Br)c1 (stereo not given),/,/,-7.4%,-2.7%
COc1cccc(-n2nnnc2SCC(=O)NCCc2ccc(OC)c(OC)c2)c1,7.0,-4.5%,0.5%,-4.3%
CCOc1ccc(CCNC(=O)c2cccc3c2C(=O)N(CCOC)C3)cc1OCC,/,3.1%,-3.2%,-11.6%
C/C(=C\C(=S)Nc1ccccc1)Nc1cccc2ccccc12,1.2,-23.9%,-5.1%,-3.9%
CC(=O)c1cccc(N=Cc2c(O)c3ccccc3oc2=O)c1,/,-2.3%,-21.6%,-3.3%
Cc1ccc(C(NC(N)=O)c2ccccc2C)cc1 (stereo not given),4.3,-7.7%,0.8%,-0.9%

# Quoted from the listing:
# Result of CC(=O)c1cccc(N=Cc2c(O)c3ccccc3oc2=O)c1 under miR-21 reporter: -2.3%
# Result of CC1=CS(=O)(=O)CC1Sc1nc2ccccc2[nH]1 (stereo not given) under miR-21 reporter: -1.2%

# (cont.)
SMILES,GLA inh pH 4.5,miR-21 reporter,Rango dissoc inh,Rango complex inh
CCOC(=O)C1=C(C)Nc2nc(SCC(=O)OC)nn2C1c1cc(F)cc(F)c1 (stereo not given),-3.1,-8.2%,1.4%&6.2%,-1.4%&0.6%
COC(=O)c1ccc(Sc2ccccc2NS(=O)(=O)c2ccc(NC(C)=O)cc2)nc1,-0.4,0.4%,-10.5%,-0.1%
C(=C\c1nc(-c2cccnc2)no1)/c1ccccc1,-27.0,-20.5%,-8.6%,2.4%
CC(C)(C)NC(=O)C1CC(=O)OC12CCOC(C)(C)C2 (stereo not given),10.2,8.6%,-10.9%,0.1%
CC(C)C[C@H]1COCCS(=O)(=O)N1Cc1cccc(F)c1,/,/,0.3%,-0.2%
Cc1cccc(C)c1NC(=O)CN(C)C(=O)c1cccc(-n2cccc2)c1,/,/,5.3%,-3.6%
Cc1ccc(NNC(=O)c2c(C)noc2C)cc1Cl,2.5,12.1%,-6.8%,6.1%
Cc1cccc(OC(=O)C2C(c3ccccc3)C(C(=O)O)C2c2ccccc2)c1 (stereo not given),6.4,-3.4%,26.1%,7.6%
CCN(CC)CCn1c(SCC(=O)Nc2ccc3c(c2)CCC3)nc2ccccc2c1=O,/,/,9.4%,2.4%
Cc1ccc(C)c(NC(=S)Nc2cccnc2)c1,5.5,3.6%,1.1%,1.7%
O=C(NCc1cccs1)C1CC1,1.4,0.1%,-13.2%,-1.2%
CCOCc1[nH]c(=S)[nH]c(=O)c1Cc1ccc(OCC)cc1,-9.2,?,2.1%,2.5%
CCOC(=O)NC(c1ccc(C(C)C)cc1)C(Cl)(Cl)Cl (stereo not given),4.3,12.5%,-0.7%,0.0%
COc1ccc(CCNC(=O)COc2cccc3c2OC(C)(C)C3)cc1OC,/,/,2.2%,1.0%
CCCCCCC1/C(=N\NC(=O)c2ccccc2)CCC1C(=O)OC (stereo not given),/,-49.5%,1.6%,0.9%
Cc1ccc(S(=O)(=O)NCC(=O)OC(C)C(=O)NC(=O)NC2CCCCC2)cc1C (stereo not given),/,/,1.1%,2.5%
CC(C)C(=O)NCCc1nc(-c2ccccc2)no1,/,/,?,?
COc1ccc(NC(=O)CSc2nnc(-c3cccnc3)o2)cc1,-0.9,-7.0%,19.2%,0.5%
C#CCOCCOCCOCCNc1nc(N2CCN(C(=O)[C@H](CCCCN)n3cc(C(N)CO)nn3)CC2)nc(N2CCN(C(=O)[C@H](CCC(=O)O)n3cc(C(N)Cc4ccc(O)cc4)nn3)CC2)n1 (stereo not given in full),1.3,8.3%,/,/
COc1ccc(N/C(=C(/C(Cl)=C(Cl)Cl)[N+](=O)[O-])n2nnc3ccccc32)cc1,0.2,3.5%,/,/
COc1ccc(CCNC(=O)CN(C)S(=O)(=O)c2ccc(OC)cc2)cc1,/,3.5%,8.2%,0.6%
CCOc1cc(NC(=O)c2cccs2)c(OCC)cc1NC(=O)c1ccccn1,5.3,-1.3%,?,?
N#CCN(CC#N)C(=O)C1c2ccccc2Oc2ccccc21,/,-0.3%,3.3%,-0.9%
Cc1occc1C(=O)N(Cc1nc(-c2ccccc2)no1)C(C)C,/,-2.1%,-5.6%,-1.3%
Cc1cccc(-c2cc(N)n(-c3ccccc3)n2)c1,14.9,-33.4%,2.0%,-1.5%
# Next section.
SMILES,GLA inh pH 4.5,miR-21 reporter,Rango dissoc inh,Rango complex inh
Cc1cc(C)cc(NC(=O)COC(=O)CC2CCCC2)c1,/,/,33.4%,0.1%
COc1ccc2[nH]c3c(=O)n(/N=C/c4ccc(OC)c(CN5CCCC5)c4)c(C)nc3c2c1,-4.0,-0.1%,?,-1.3%
Cc1cc([N+](=O)[O-])ccc1NC(=O)c1csc(C)c1C,/,-36.1%,0.7%,-2.3%
COc1ccccc1C(=O)NC(C)c1cccc2ccccc12 (stereo not given),/,5.6%,14.5%,-5.8%
Cc1ccccc1OCCC(=O)OCC(=O)NC1CC1,/,/,-1.0%,-1.3%
CCC/C=N/NC(=O)c1ccc(F)cc1,2.9,-27.1%,3.1%,-1.0%
CCOC(=O)c1cnc(Nc2nc3ccccc3o2)nc1CN1CCN(C)CC1,-3.6,-12.2%,-20.0%,?
Cc1ccc(S(=O)(=O)Oc2ccccc2/C=N/Nc2ccc(C(=O)O)cc2)cc1,-24.1,-18.8%,16.1%,-3.3%
O=C(CN1C(=O)C2CC=CCC2C1=O)OCCN1C(=O)c2ccccc2C1=O (stereo not given),10.2,-2.0%,0.1%,-2.2%
CC(C)C[C@@H](CN)NC(=O)c1nc[nH]c1C(=O)N[C@@H](C)C(=O)CNC[C@H](C)NC(=O)c1nc[nH]c1C(=O)N[C@@H](Cc1ccccc1)C(=O)O,/,/,1.5%,5.3%
O=Cc1cnc(N2CCN(c3ccccc3)CC2)s1,2.4,-26.8%,-5.9%,2.7%
CCCCCCCN1C2=NCCCN2c2ccccc21,1.2,?,-2.6%,0.8%
CC(=O)Nc1cccc(NC(=O)CSc2nc(=O)n(CCCN3CCOCC3)c3c2CCC3)c1,/,/,-1.2%,1.3%
Cc1ccc(NC2=C(Cl)C(=O)OC2OC(=O)c2ccccc2C)cc1 (stereo not given),-5.7,7.8%,-5.8%,1.5%
CCOC(=O)c1ccc(OCCOc2cccc(C)c2)cc1,/,-2.8%,5.5%,-0.9%
COc1ccc(-c2c(C)n([O-])c3c([n+]2=O)CCCCC3)cc1,7.1,-0.9%,2.2%,-0.6%
O=C(N/N=C/c1sc(N2CCCCC2)nc1-c1cccs1)C1CC1,-5.2,-9.1%,?,?

# Some of the compounds tested (hit frequency here may not be typical).
